Source: PubChem
BJeLR lethal – BJeLR cell viability loss; BJeLR (HRASV12) viability, CellTiter-Glo ATP luminescence, 48 h; reference of the scale not given here; inhibition, % (no concentration beside the values); actives 0.17% (n = 300,000); AID 1554;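 active = replicate mean above 50%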;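 also: 50 nL library stock added to about 25 µL; numbers are from one replicate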
Starred values were filed as active, the others as inactive.

SMILES	BJeLR lethal
O=C(N/N=C(\c1ccccc1)c1cccnc1)c1cc(O)ccc1O	-11.5
C#CCOCCOCCOCCNc1nc(N2CCN(C(=O)C([C@@H](C)CC)n3cc(C(N)COC(=O)C(F)(F)F)nn3)CC2)nc(N2CCN(C(=O)C([C@@H](C)CC)n3cc(C(N)CC(C)C)nn3)CC2)n1 (stereo partly specified)	-10.2
COc1ccc(-c2coc3c(CN4CCCCC4)c(O)c(CN4CCCCC4)c(O)c3c2=O)cc1	7.0
CN1CCN(C2=Nc3cc(F)ccc3Cc3ccccc32)CC1	5.5
Cc1ccsc1/C=N/NC(=O)C1C(=O)NCC1c1ccccc1 (stereo unspecified)	-2.7
CC1(C(=O)CSc2n[nH]c(-c3ccccc3Cl)n2)CCC(=O)O1 (stereo unspecified)	2.9
Cc1ccc(SCc2cc(=O)n3ccsc3n2)c(C)c1	15.3
Cc1ccc(CN2C(=O)C3CCCN3c3ccc(S(=O)(=O)N4CCOCC4)cc32)cc1 (stereo unspecified)	-6.6
CCCc1ccc(/C=C2\C(=O)c3ccccc3C(O)=C2C(=O)OCC)cc1	25.9
CC1(OC(=O)C2CCCC2)C(=O)C=C2C=C(c3ccsc3)N(CCN3CCOCC3)C=C2C1=O (stereo unspecified)	-5.3
Cc1cc(C)n2nc(C(=O)N/N=C/C=C/c3ccccc3)nc2n1	-2.2
Cc1nc(NC(=O)c2cccc(Cl)c2)sc1-c1csc(Nc2cccc(Cl)c2)n1	0.7
O=c1ncc(F)c[nH]1	2.3
COc1ccc(N2Cc3ccc(C(=O)N/N=C\c4ccc(O)cc4O)cc3C2)cc1	0.4
O=C1N[C@H](Cc2ccccc2)C(=O)N[C@H]1Cc1cn(S(=O)(=O)c2ccccc2)c2ccccc12	1.7
CC(=O)OC1=C(O)C(=O)c2ccccc2C1=O	-5.0
CCCCCCN(C(=O)CCCCCN1C(=O)NC(c2ccc(-c3ccccc3)cc2)C(C(=O)OCc2ccccc2)=C1C)C(C(=O)NCCCC)c1ccc(O)c(C(=O)OC)c1 (stereo unspecified)	-5.2
Cc1cc(C(=O)N/N=C/c2cc(Br)cc(Br)c2OC(=O)c2ccccc2)n[nH]1	-4.0
Cc1ccc(Cl)cc1Nc1nc(-c2sc(NC(=O)c3cccc(Cl)c3)nc2C)cs1	-7.4
COc1cc(S(=O)(=O)Nc2ccccc2)ccc1N=Cc1c(C)[nH]n(-c2ccc(C)cc2)c1=O	12.5
O=C(O)Cn1cc(/C=C2/SC(=O)N(CC(=O)N3CCCCCC3)C2=O)c2ccccc21	1.5
N#Cc1ccc(C23CC4(C2)[C@H](CN(Cc2ccc(C(F)(F)F)cc2)[C@@H]4c2ccccc2)C3c2ccc(Cl)nc2)cc1 (stereo partly specified)	4.9
COC(=O)[C@@]1(Cc2ccccc2)[C@H]2c3cc(C(=O)N4CCCC4)n(CCSCCO)c3C[C@H]2CN1C(=O)c1ccccc1	-10.5
CN[C@@H]1C[C@@H](c2ccc(Cl)c(Cl)c2)c2ccccc21	-4.3
Cc1nc(NC(=O)c2ccccc2)sc1-c1csc(Nc2ccc(F)cc2)n1	10.7

The closing 6 entries of the section before lead into the next.
SMILES	BJeLR lethal
COc1cc(S(=O)(=O)Nc2ccccc2)ccc1N=Cc1c(C)[nH]n(-c2ccc(C)cc2)c1=O	12.5
O=C(O)Cn1cc(/C=C2/SC(=O)N(CC(=O)N3CCCCCC3)C2=O)c2ccccc21	1.5
N#Cc1ccc(C23CC4(C2)[C@H](CN(Cc2ccc(C(F)(F)F)cc2)[C@@H]4c2ccccc2)C3c2ccc(Cl)nc2)cc1 (stereo partly specified)	4.9
COC(=O)[C@@]1(Cc2ccccc2)[C@H]2c3cc(C(=O)N4CCCC4)n(CCSCCO)c3C[C@H]2CN1C(=O)c1ccccc1	-10.5
CN[C@@H]1C[C@@H](c2ccc(Cl)c(Cl)c2)c2ccccc21	-4.3
Cc1nc(NC(=O)c2ccccc2)sc1-c1csc(Nc2ccc(F)cc2)n1	10.7
C#CCOCCOCCOCCNc1nc(N2CCN(C(=O)CCCCCCCCCCNC(=O)[C@H](CO)n3cc(CCCSC)nn3)CC2)nc(N2CCN(C(=O)CCCCCCCCCCNC(=O)[C@H](CCCCN)n3cc(C[C@@H](C)CC)nn3)CC2)n1	17.7
Cc1cc(N/N=C/c2ccc(F)cc2)nc(-n2nc(C)cc2C)n1	-8.3
CC(C)n1c(SCC(=O)Nc2nncs2)nnc1-c1ccco1	-5.9
COC(=O)c1cc(C(=O)c2ccccc2)n2c(=O)/c(=C\N(C)C)sc12	10.4
CN1C(=O)NC(c2ccccc2)C2=C1CN(Cc1ccccc1)C2=O (stereo unspecified)	-4.4
O=C1Nc2ccc(C(F)(F)F)cc2N2CCCC12 (stereo unspecified)	0.0
Cc1ccc(CNC(=O)Cn2c(=O)c3sccc3n(Cc3cccc([N+](=O)[O-])c3)c2=O)cc1	-2.0
COc1ccc([C@H]2Oc3cc(O)cc(O)c3C(=O)C2[C@@H]2C(=O)c3c(O)cc(O)cc3O[C@@H]2c2ccc(OC)cc2)cc1 (stereo partly specified)	14.4
Cc1ccc(C(=O)Nc2ccc(C(=O)N/N=C/c3ccncc3)cc2)cc1	-9.4
Cc1ccc(/C([O-])=C(/C(=S)NCc2ccco2)[n+]2ccccc2)cc1	1.9
COCCn1c(N/N=C(C)/C=C/c2ccccc2)nc2c1c(=O)[nH]c(=O)n2C	8.1
Cc1cccc(-[n+]2c(-c3cccc(Br)c3)[nH]c3nc4ccccc4nc32)c1	-0.7
O=C(NCc1ccc2[nH]c3c(c2c1)CCCC3)N1CCOCC1	-15.0
C/C(=N\NC(=O)CCC(=O)N/N=C(\C)c1ccc(C)o1)c1ccc(C)o1	8.3
Cc1ccc(C)c(OCC(=O)N/N=C/c2c(C)nn(-c3ccccc3)c2Cl)c1	-2.1
N#C/C(=C\c1cc(Cl)c(OCc2ccc(Cl)cc2)c(Cl)c1)C(N)=O	6.6
O=C1N[C@@H](Cc2ccccc2)C(=O)N2[C@H]3Nc4ccccc4[C@@]3([C@]34C[C@H]5C(=O)N[C@@H](Cc6ccccc6)C(=O)N5[C@H]3Nc3ccccc34)C[C@@H]12	-3.6
Fc1ccc(Oc2nc(-c3ccccn3)nc3ccccc23)cc1	-4.5
Cc1ccc(NCc2ccc(C)s2)cc1	-4.5
O=C(COc1ccc(Cl)cc1Cl)NC(=S)Nc1ccccc1C(=O)O	-3.9
Cc1ccc(S(=O)(=O)N/N=c2\oc3ccccc3cc2C(=O)Nc2cccc(C)c2)cc1	0.1
N[C@@H](Cc1cc(Br)c(O)c(Br)c1)C(=O)O	-10.1
Cc1ccc(/C=C/C(=O)Oc2ccc(C#N)cc2)o1	2.8
Cc1ccc(N/N=C2\CC(=O)c3ccccc32)cc1Cl	-1.1
O/N=C/c1cc(Cl)ccc1OCc1cccc2ccccc12	-1.8

(further entries)
SMILES	BJeLR lethal
N#C/C(=N\Nc1ccc(F)cc1)C(=O)C1CC1	-6.3
O=[N+]([O-])c1cc([N+](=O)[O-])c2cccnc2c1O	-2.9
CCCCn1c2ccccc2c2nnc(SCC(=O)NC3=NN=C(c4ccccc4)CS3)nc21	-3.9
COC(=O)[C@H](Cc1ccccc1)NC(=O)O[C@H]1C(=O)c2ccc(OC)cc2O[C@@H]1c1ccc2c(c1)OCO2	14.9
COC(=O)CCC(=O)OC1(C)C(=O)C=C2C=C(C3CC3)OC=C2C1=O (stereo unspecified)	15.1
COc1ccc(CC(=O)Nc2ccccc2Oc2ccccc2)cc1	7.8
O=C(N/N=C/c1nn(-c2ccccc2)cc1-c1ccc(Cl)cc1)c1ccncc1	5.4
CCCCCNc1nc(-c2ccccc2)cs1	4.4
Cc1cccc(OCC(=O)Nc2ccc(C(=O)NCc3cccnc3)cc2)c1	55.0*
O=C(c1cccn2c(=O)c3cc4ccccc4cc3nc12)N1CCN(c2ccccc2)CC1	-5.1
CC[C@@H]1C=CC=CC[C@H](C)[C@@H](O)[C@@H](C)C(=O)[C@H](C)[C@@H](O)[C@H](C)C(=O)[C@H](C)[C@@H](O)[C@H](C)C=CC(=O)O[C@H]2[C@@H](C)[C@@H](CC1)O[C@@]1(CC[C@@H](C)[C@@H](C[C@H](C)O)O1)[C@@H]2C	5.4
Cc1ccccc1C(=O)Nn1c(C)ccc1C	-5.4
CNC(C)C#Cc1ccc2sc3cc(OC)c(OC)cc3c(=O)c2c1 (stereo unspecified)	3.9
COc1cc(OC)cc(-c2cc3nc(C)cc(N4CCN(C(=O)c5ccco5)CC4)n3n2)c1	-1.4
O=[N+]([O-])C(=c1ccc2c(c1)N1C3=C(CCCC3)CC3CCCCC31N=2)[N+](=O)[O-] (stereo unspecified)	9.2
CC(C)(C)C(=O)/C(=C\c1ccc([N+](=O)[O-])cc1)n1cncn1	-20.9
COC(=O)[C@@]1(Cc2ccc(OC)cc2)[C@H]2c3cc(C(=O)N(C)C)n(Cc4ccc(OC(F)(F)F)cc4)c3C[C@H]2CN1C(=O)c1ccccc1	-16.8
O=S(=O)(Nc1nc2ccccc2nc1-[n+]1cccc(N=C([O-])c2ccccc2Cl)c1)c1ccccc1	5.0
CC(C)Cn1cc(C(=O)NC2CCN(Cc3ccccc3)CC2)c2c3ccccc3n(C)c2c1=O	-5.3
CCOC(=O)CN(C)Cc1c[nH]c2ccccc12	13.7
O=C(Oc1ccc2cc(Br)ccc2c1)N1CCCCCC1	12.3
COc1cccc(C2=CC(c3ccccc3)n3ncnc3N2)c1 (stereo unspecified)	1.8
Cc1ccn2c(C(=O)N/N=C/c3ccc(CNC(=O)C(=O)Nc4ccc(C)c(C)c4)o3)c(C)nc2c1	4.4
COC(=O)C1=C(C)N(Cc2ccco2)C(=O)N[C@H]1c1ccccc1	7.0
O=C(C1=C[C@@H]2[C@H]3C(=O)N(c4ccccc4Cl)C(=O)[C@H]3[C@@H](C(=O)c3ccc(Cl)cc3)N2C=C1)c1ccccc1	0.0

Single values from above.
CCCCn1c2ccccc2c2nnc(SCC(=O)NC3=NN=C(c4ccccc4)CS3)nc21 | BJeLR lethal = -3.9
CCOC(=O)CN(C)Cc1c[nH]c2ccccc12 | BJeLR lethal = 13.7

Later entries:
mol | BJeLR lethal
CC1(C(=O)Nc2cccc(C(F)(F)F)c2)CO1 (stereo unspecified) | 2.2
CCN(c1ccccc1)S(=O)(=O)c1ccc(Cl)c(NC(=O)COC(=O)c2cc(O)c3ccccc3c2O)c1 | 3.4
O=c1[nH]c2ccccc2nc1C(Cl)c1ccccc1 (stereo unspecified) | 2.6
CCOC(=O)c1[nH]c2cc(OC)c(OC)cc2c1NC(=O)CN1CCN(c2ccc(OC)cc2)C(C)C1 (stereo unspecified) | 1.2
O=[N+]([O-])c1ccc(S(=O)(=O)Nc2ccc(-c3csc(-c4ccccc4)n3)cc2)cc1 | -9.5
O=C(Nc1ccc2c(c1)nc1n2CCN(C2CCCCC2)C1)NC1CCCCC1 | 0.5
O=C(CN1CCSCC1)N1CCc2[nH]c3ccc(Br)cc3c2C1 | -3.7
O=C(N/N=C/c1c(Cl)[nH]c2ccccc12)c1ccc2c(c1)OCCO2 | 6.8
COc1cccc(C2=CC(c3ccc(C)cc3)n3ncnc3N2)c1 (stereo unspecified) | 1.9
C#CCOCCOCCOCCNc1nc(OC)nc(N2CCN(C(=O)[C@H](CCCCN)n3cc(C(N)CO)nn3)CC2)n1 (stereo partly specified) | -10.2
O=C(N/N=C/c1cc(Br)cc(Br)c1O)c1ccncc1 | -1.0
Cc1ccc(-c2nc(SCC(=O)Nc3ccccc3OC(F)F)c3c(C)c(C(=O)O)sc3n2)cc1 | 6.4
O=C1CC(c2ccccc2Br)c2cc3c(cc2N1)CCC3 (stereo unspecified) | -0.2
CCCCCCNC(=O)N[C@@H](C(=O)NCCC[C@H]1CN2C(=NC[C@@H]2Cc2ccccc2)N1CCc1cccc(OC)c1)C(C)C | -8.8
O=C(Nc1ccccc1)C1=C[C@H](c2ccc(C(F)(F)F)cc2)C[C@H](OCc2ccc(CO)cc2)O1 | -3.8

Additional structures follow:
mol | BJeLR lethal
COC(=O)C/C=C/[C@@H](C)[C@@H](/C=N/OC[C@H]1O[C@H](c2ccccc2)C=C[C@@H]1Oc1ccc(OC)cc1)NS(=O)(=O)c1ccc(C)cc1 | 2.5
CC(=O)Oc1ccccc1C(=O)Nc1ncc([N+](=O)[O-])s1 | 25.6
CCN(CC)C(=O)c1ccc2c(c1[N+](=O)[O-])C(=O)c1ccccc1C2=O | 3.0
COc1ccc(N2CCN(CCCNS(=O)(=O)c3c(C)noc3/C=C/N(C)C)CC2)cc1 | 10.1
C#CCOCCOCCOCCNc1nc(N2CCN(C(=O)C([C@@H](C)CC)n3cc(C(N)COC(=O)C(F)(F)F)nn3)CC2)nc(N2CCN(C(=O)[C@H](CCCCN)n3cc(C(N)[C@H](C)CC)nn3)CC2)n1 (stereo partly specified) | 4.1
Cc1ccc2c(c1)N/C(=C(\C=C(/Cl)[N+](=O)[O-])[N+](=O)[O-])N2 | -0.1
CCOC(=O)C(=Cc1ccc(F)cc1)C(=O)OCC | 2.8
COc1cc(N)c(Cl)cc1C(=O)NC1CN2CCC1CC2 (stereo unspecified) | -8.9
COC(=O)CCC(=O)OC1(C)C(=O)C=C2C=C(C3CC3)N(c3ccc(CO)cc3)C=C2C1=O (stereo unspecified) | -3.5
c1ccc(C2=Nc3ccccc3SC2c2nc3ccccc3[nH]2)cc1 (stereo unspecified) | 5.0
Cc1ccc2nsnc2c1NC(=O)c1cccc([N+](=O)[O-])c1 | 9.1
CCCC(=O)Nc1cc(-c2nnc(OC)c3ccccc23)ccc1N1CCCCC1 | -2.7
CC(=O)NCC1=C(NC(C)=O)C2CC1C(C)(C)C2C (stereo unspecified) | -9.1
Cc1ccc2c(c1)c1c(n2CC(O)CN2CCOCC2)CCCC1 (stereo unspecified) | -15.8
O=c1cc(-c2c(F)c(F)c(F)c(F)c2F)oc2c(F)c(F)c(F)c(F)c12 | -15.2
O=c1c2c3c(sc2nc(N2CCNCC2)n1-c1cccc(Cl)c1)CCCCC3 | 0.9
NC(=O)CC[C@@H]1NC(=O)[C@H](CO)NC(=O)c2cc([N+](=O)[O-])cc(I)c2NCCCC[C@@H](C(N)=O)NC(=O)[C@H](Cc2ccc(O)cc2)NC1=O | 0.5
O=C(N/N=C/c1c(O)ccc2ccccc12)Nc1ccccc1 | -1.2

This is a subset; rates above refer to the full screens.
